Screening results deposited in PubChem by several laboratories.
CBX7 AlphaScr: CBX7 inhibition, primary AlphaScreen; 66,000 compounds, 1.1% hits; normalised signal (fraction of DMSO) (concentration not given with the values); O95931; AlphaScreen His6-CBX7 / biotin-H3K27me3 peptide binding; active compounds read low; in the data active = normalised signal below about 0.5;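 also: 100 nL library stock added to about 20 µL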
Target sequence (O95931 whole entry, looked up): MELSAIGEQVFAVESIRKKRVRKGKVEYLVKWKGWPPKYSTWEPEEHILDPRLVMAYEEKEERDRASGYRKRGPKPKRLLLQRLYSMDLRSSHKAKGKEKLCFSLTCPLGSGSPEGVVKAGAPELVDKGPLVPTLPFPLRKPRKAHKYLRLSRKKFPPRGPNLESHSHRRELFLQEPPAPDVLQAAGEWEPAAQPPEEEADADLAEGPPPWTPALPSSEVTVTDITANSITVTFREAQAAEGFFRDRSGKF
CBX7 AlphaScr z-score: recorded beside CBX7 AlphaScr, whose call it bears; z-score; measured here: z-score of CBX7 signal; some inactives read as strong as hits; reference of the scale not given here;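 same signal on another scale; lower means less binding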
An asterisk follows results filed as active; & = joins results of further samples. An excerpt; the hit share may differ from the screen's.

SMILES	CBX7 AlphaScr	CBX7 AlphaScr z-score
COC(=O)c1c[nH]n2c(NCCc3ccccc3)c(-c3cccc(OC)c3)nc12	0.86	-2.8
CCOCCCNC(=O)c1ccc2c(c1)ncn2-c1ccc(OC)cc1	0.87	-1.6
OC(COCc1ccc(Cl)cc1)CN1CCOCC1 (stereo not drawn)	1	-0.018
COc1ccc(N2CCN(C(=O)Cn3cnc4sc(C)c(C)c4c3=O)CC2)cc1	0.94	-1.6
Cc1ccc(NC(=O)Nc2ccc3c(c2)N(C)C(=O)CS3)nc1	0.98	-0.63
CC1(C)Cc2c(c(-c3ccccc3)nc(N3CCCC3)c2C(N)=O)CO1	0.89	-1.3
CCN(CC)S(=O)(=O)c1ccc2c(c1)N(CC(=O)N1CCCC1)C(=O)CO2	1.1	2.3
Cc1nc(N2CCCCC2)c2c(C)c(C(=O)Nc3ccc4c(c3)OCO4)sc2n1	0.82	-2.6
COCCN1Cc2cccc(C(=O)Nc3cccnc3)c2C1=O	1.2	2.6
CCOC(=O)c1ccc(Nc2cc(C)nc3nc(C)nn23)cc1	1.1	0.78
CC(C)Cc1cc(C(=O)NCc2cccnc2)no1	0.98	-0.55
Cc1cccc(-n2ccnc2SCC(=O)Nc2cccc(C(F)(F)F)c2)c1	0.93	-0.073
CN(C(=O)Cn1nc(Cc2ccncc2)c2ccccc2c1=O)c1ccc(F)cc1	1.1	1.3
Cc1ccc(NC(=O)C2CCN(S(=O)(=O)c3ccc(F)cc3)CC2)cc1	1	1.5
Cc1noc(/C=C/c2cccs2)c1S(=O)(=O)N1CCCC(C(=O)N2CCOCC2)C1 (stereo not drawn)	0.96	-0.79
OCCCNc1nc(-c2ccccc2Cl)c2cc(Br)ccc2n1	1.1	2
OC(COc1ccc(C2CCCCC2)cc1)CN1CCCCC1 (stereo not drawn)	1.1	1.3
Cc1cc(C)cc(NS(=O)(=O)c2ccc3c(c2)CCN3C(=O)C2CCC2)c1	0.89	-3.8
Cc1nc2ncccn2c1-c1csc(Nc2ccc(C(=O)O)cc2)n1	1&1.1	1.2&1.9
COc1ccc(NC(=O)N(CCCOC(C)C)C2CCN(C(C)=O)CC2)c(OC)c1	1.1	0.083
COc1ccc(S(=O)(=O)NCCc2c(C)[nH]c3ccc(Br)cc23)cc1C	0.57	-0.43
Clc1ccccc1COc1cccc(CNCc2cccnc2)c1	0.82	-2
Fc1ccc(-c2cc(C(F)(F)F)nc(NCc3cccnc3)n2)cc1	1	0.37
CCn1c(SCc2cccnc2)nnc1-c1c[nH]c2ccccc12	1.1	0.63
O=C1C2C3c4ccccc4C(C(=O)O)(c4ccccc43)C2C(=O)N1Cc1ccccc1 (stereo not drawn)	0.95	-0.87
O=C(c1ccc(Cl)cc1)N1CCN(c2nc(-c3ccccc3)c3cc([N+](=O)[O-])ccc3n2)CC1	0.78	-2.1
CCOC(=O)c1c(C)n(-c2ccc(C)cc2)c2ccc(OCC(O)CNc3ccc(C(C)C)cc3)cc12 (stereo not drawn)	0.83	-1.6
O=C(CCN1C(=O)COc2ccccc21)NCCN1CCCCCC1	1	0.26
Cc1ccccc1-c1nc(S(=O)(=O)c2ccccc2)c(N2CCCCCC2)o1	0.89	-1
O=C(CN1CC(c2ccccc2)CC1=O)N1CCN(c2ccccc2F)CC1 (stereo not drawn)	0.95	-1.2
COc1ccc(CCNC(=O)CN2C(=O)CSc3ccccc32)cc1OC	0.61	-6.7
CCCNC(=O)CSCc1nc(-c2ccc(OCC)cc2)oc1C	0.91	-1.3
Cc1sc2ncn(CC(=O)NCC(=O)NC(C)C)c(=O)c2c1C	1.3	2.7
CC(C(=O)NCCc1ccccc1)C1Sc2ccccc2N(Cc2cccc(Cl)c2)C1=O (stereo not drawn)	1	0.63
CCN(CC)S(=O)(=O)c1ccc2c(c1)N(CC(=O)Nc1cccc(C)n1)C(=O)CS2	1	0.13
Cc1cc(N2CCC(C(=O)NCCN3CCOCC3)CC2)n2nc(C)c(-c3ccc(Cl)cc3)c2n1	0.8	-0.51
CCOC(=O)c1c(C)n(CC)c2c1cc(O)c1ccccc12	0.97	-1
O=C(Cn1ncc2c1-c1ccccc1OC2)Nc1cc(F)ccc1F	1	0.17
CCOc1ccc(C2NC(=O)c3c(sc4c3CCN(C)C4)N2)cc1OC (stereo not drawn)	0.95	-0.92
COc1ccc(-c2cc(C(=O)NC(C)C)no2)cc1OC	1	0.68
Cc1c(C(=O)NCc2ccc(F)cc2)oc2ccc(S(=O)(=O)N3CCCCC3)cc12	1	-0.032
CCCN1CCCc2cc(CN(CCCN3CCOCC3)C(=O)Nc3ccc(CC)cc3)ccc21	0.52	-7.5
Cc1nc2nc(SCC(=O)NC3CCCCC3)nn2c(C)c1Cc1ccccc1	1.4	1.4
O=C(Nc1ccc2oc(-c3ccc(F)cc3)nc2c1)c1cccc(Br)c1	1	0.36
O=c1cc(Cc2ccccc2)nc2c(-c3ccc(Cl)cc3)c[nH]n12	1	-0.03
O=C(c1ccc2c(c1)N(Cc1c(F)cccc1Cl)C(=O)c1ccccc1S2)N1CCCC1	0.99	-0.053
CCc1nc(-c2ccc(OC)c(OC)c2)cc2cc(OC)c(OC)cc12	1	0.65
CCN(Cc1ccccc1)C(=O)CCc1nc(-c2ccc(OC)cc2)no1	0.81	-2.8

Whole records as entered above. Order of screens: CBX7 AlphaScr | CBX7 AlphaScr z-score
`CCc1nc(-c2ccc(OC)c(OC)c2)cc2cc(OC)c(OC)cc12` is listed with 1 | 0.65
`O=C(Nc1ccc2oc(-c3ccc(F)cc3)nc2c1)c1cccc(Br)c1` is listed with 1 | 0.36
`O=c1cc(Cc2ccccc2)nc2c(-c3ccc(Cl)cc3)c[nH]n12` is listed with 1 | -0.03
`CCOC(=O)c1c(C)n(CC)c2c1cc(O)c1ccccc12` is listed with 0.97 | -1

Additional structures follow:
SMILES	CBX7 AlphaScr	CBX7 AlphaScr z-score
O=C(CN1CCN(S(=O)(=O)c2ccc(Br)cc2)CC1)Nc1ccc(F)cc1	0.86	-0.9
O=C(Nc1ccc(F)cc1)c1cnn(-c2ccccc2)c1C1CCNCC1	0.86	-5.1
O=C(NCCC(c1ccccc1)c1ccccc1)Nc1cc(F)c(F)cc1Cl	1.1	1.6
COc1ccc(N2CCN(C(=O)c3ccc4nc(N5CCOCC5)sc4c3)CC2)cc1	1	0.072
CCc1nc2cc(Cl)c(Cl)cc2nc1CC	1.3	2
O=C(NCCN1CCCC1)c1ccc2c(c1)N(Cc1ccccc1)C(=O)c1ccccc1S2(=O)=O	1.1	2.8
COc1ccc2c(c1)c(=O)c(S(=O)(=O)c1ccc(Cl)cc1)cn2CC(=O)Nc1ccccc1C	0.95	-0.71
Cc1ccccc1NC(=O)c1c(C)nc(Nc2nc3ccccc3o2)nc1C	0.89	-1.4
CCOC(=O)c1cnc2ccc(OCC)cc2c1NCCN(CC)CC	1	-0.044
O=C(O)c1ccc(NCc2nc3ccccc3n2CCOc2ccccc2)cc1	0.89	-2
COC(=O)c1c(NC(=O)c2ccc(C(C)(C)C)cc2)sc(C)c1C	1.4	1.1
CC(NC(=O)c1cc(-c2ccco2)on1)c1ccccc1 (stereo not drawn)	0.91	-2.4
Cc1cc(Nc2ccccc2N2CCOCC2)n2ncnc2n1	1	0.53
CCOC(=O)N1CCC(Nc2c(NCc3ccc(F)cc3)c(=O)c2=O)CC1	1	0.091
COc1ccc(N2C(=O)CC(N3CCN(Cc4ccc5c(c4)OCO5)CC3)C2=O)cc1 (stereo not drawn)	0.99	-0.15
CCC(=O)N1CCc2cc(S(=O)(=O)NCCC(=O)N3CCN(c4cccc(C)c4C)CC3)ccc21	1	1.8
Cc1ccc(C2CC(C(F)(F)F)n3nc(C(=O)Nc4cccnc4)cc3N2)cc1 (stereo not drawn)	0.91	-1.8
CCOC(CNC(=O)C1CCN(C(=O)c2cc3sccc3n2CC)CC1)OCC	0.82	-2.3
Cc1ccc(CNC(=O)c2ccc3c(c2)N(Cc2ccccc2)C(=O)CS3)cc1	0.8	-2.6
Cc1sc(NC(=O)c2ccc(F)cc2)nc1-c1ccc(Br)cc1	0.97	-0.098
Cc1cccc(N2CCN(c3cc(C)nc4nc(C)nn34)CC2C)c1 (stereo not drawn)	1	0.12
Cc1ccc(-c2n[nH]c(=O)c3ccccc23)cc1S(=O)(=O)Nc1ccccc1	0.89	-3
OC(c1ccccc1)(c1ccccc1)C1CCN(c2ccc3nnc(-c4ccccc4)n3n2)CC1	0.84	-2.1
Cc1ccc(NS(=O)(=O)c2ccc3[nH]c(=O)c(=O)[nH]c3c2)cc1F	1	1.7
O=C(Nc1ccc2c(c1)OCO2)C1CCN(C(=O)c2cnn(-c3ccccc3)c2-n2cccc2)CC1	1.1	0.81
Cc1ccc(NC(=O)[C@H](CSCc2ccccc2)N2Cc3ccccc3C2=O)cc1	0.9	-2.2
COc1ccc(N2C(=O)C3CCC(C)(C2=O)C3(C)C)cc1 (stereo not drawn)	0.9	-1.6
CC(C)C(=O)NC(C)C(c1cccs1)N1CCN(C)CC1 (stereo not drawn)	1.1	3.1
Cc1c(C(=O)Nc2ccc(S(N)(=O)=O)cc2)sc2nc(-c3ccccc3)cn12	0.94	-1.1
CCC1Oc2ccccc2N(CC(=O)NCCC(C)C)C1=O (stereo not drawn)	0.9	-1.1
CCc1ccc2c(c1)c(=O)c(S(=O)(=O)c1ccccc1)cn2CC(=O)Nc1ccc(OC)cc1	1	0.32
CCOC(=O)c1cccc(NC(=O)c2ccccc2Cl)c1	1.3	1.4
CCn1c2c(c3cc(C4CCCCC4)ccc31)CCCC2O (stereo not drawn)	0.47*	-1.5*
O=C(NCc1ccc(F)cc1)c1cnc2sccn2c1=O	0.91	-1.6
O=C(CP(=O)(c1ccccc1)c1ccccc1)Nc1nc2ccccc2s1	1.1	0.21
CCCc1sc(Nc2ccc(C)cc2)nc1-c1ccc(Cl)c(Cl)c1	0.99&1.1	-0.36&0.69
COc1ccc(CNC(=O)c2ccc3c(c2)N(Cc2ccc(C)cc2)C(=O)CS3)cc1	1.1	2.5
COCCNC(=O)CCc1nc(-c2ccc(OC)cc2)no1	0.9	-0.1
COc1ccc(-c2cc(C(=O)NC3CCCC3)c3cc(C(C)C)ccc3n2)cc1	1	0.39
Cc1ccc(N(C(=O)C23CC4CC(CC(C4)C2)C3)C2C=CS(=O)(=O)C2)cc1 (stereo not drawn)	0.98	-0.7
Cc1ccc(-n2cc(-c3ccccc3)nc2S(=O)(=O)CC(=O)Nc2ccc(F)cc2)cc1	0.86	-1.4
CCCC1CCC(c2ccc(-c3noc(-c4c(-c5ccccc5Cl)noc4C)n3)cc2)CC1 (stereo not drawn)	0.92	-1.2
O=C(Nc1cc(NC(=O)c2ccccc2F)ccc1Cl)c1ccccc1	1	0.57
COc1cc2c(C(=O)Nc3ccc(C)c(F)c3)cn(C)c(=O)c2cc1OC	1	0.27
O=c1[nH]c(CN2CCN(c3ccc(F)cc3)CC2)nc2ccccc12	0.88	-1.5
Cc1ccc(-c2nc3cnccn3c2NC2CCCCC2)cc1	0.96	-0.55
O=C1c2ccccc2C(Nc2ccccc2)N1c1ccccn1 (stereo not drawn)	1.1	1.7
Cc1ccc2c(N)c(C(N)=O)sc2n1	1	1.3

2 of the compounds above, field by field.
smiles: Cc1cc(C)cc(NS(=O)(=O)c2ccc3c(c2)CCN3C(=O)C2CCC2)c1
  CBX7 AlphaScr = 0.89
  CBX7 AlphaScr z-score = -3.8

smiles: Cc1nc2ncccn2c1-c1csc(Nc2ccc(C(=O)O)cc2)n1
  CBX7 AlphaScr = 1&1.1
  CBX7 AlphaScr z-score = 1.2&1.9

Back to the main list, starting four compounds before the break.
SMILES	CBX7 AlphaScr	CBX7 AlphaScr z-score
O=c1[nH]c(CN2CCN(c3ccc(F)cc3)CC2)nc2ccccc12	0.88	-1.5
Cc1ccc(-c2nc3cnccn3c2NC2CCCCC2)cc1	0.96	-0.55
O=C1c2ccccc2C(Nc2ccccc2)N1c1ccccn1 (stereo not drawn)	1.1	1.7
Cc1ccc2c(N)c(C(N)=O)sc2n1	1	1.3
O=C(Nc1ccc(Cl)cc1F)C1CCCN(S(=O)(=O)c2cccnc2)C1 (stereo not drawn)	1	1.2
Cc1ccc(S(=O)(=O)CCc2nnc(NC(=O)c3ccc(F)cc3)s2)cc1	1	1.1
COc1ccc(C(=O)CC2(O)C(=O)N(Cc3ccc(Cl)cc3)c3ccccc32)cc1OC (stereo not drawn)	0.71	-11
CN(Cc1ccccc1)C(=O)C1(NS(=O)(=O)c2cccc3cccnc23)CCCCC1	0.96	-1.8
Cc1ccc(-n2nc3c(c2NC(=O)C(C)Oc2ccccc2)CS(=O)(=O)C3)cc1 (stereo not drawn)	1.1	0.95
CCCn1c(C(C)NC(=O)Cc2ccccc2)nc2ccccc21 (stereo not drawn)	0.82	-2.1
Cc1ccc(NC(=O)C2CCN(c3nnc(-n4cccc4)s3)CC2)cc1Cl	1	0.0061
CC1CCCC(NC(=O)C2(C)CCC(=O)N2CCc2ccc(Cl)cc2)C1C (stereo not drawn)	1.1	1.2
Cc1ccc2nc(C)cc(Nc3ccccc3)c2c1	1	1.2
COc1cccc(-c2nn(C)c3sc(C(=O)NCCN(C)C)cc23)c1	0.88	-1.6
Cc1ccc(NC(=O)N(Cc2cccnc2)Cc2ccccc2Cl)cc1C	0.64	-0.36
COc1ccc(NC(=O)C(=O)c2c(-c3ccccc3)[nH]c3ccccc23)cc1	0.96	-0.41
O=C(Nc1nccs1)c1cccc(S(=O)(=O)N2CCCCC2)c1	1.4	0.86
